# BJeLR lethal: BJeLR cell viability loss; BJeLR (HRASV12) viability, CellTiter-Glo ATP luminescence, 48 h; reference of the scale not given here; 0.17% of 300,000 active; inhibition, % (no concentration beside the values);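 active = replicate mean above 50%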;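 note: 50 nL library stock added to about 25 µL; numbers are from one replicate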
# PrP 5UTR inh: suppresses PrP 5' UTR mRNA reporter expression | cell-based PrP 5' UTR mRNA reporter, plate reader | inhibition, % (test concentration not listed) | 0.35% of 340,000 active | AID 488862;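 active = every replicate at 50% or more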;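 note: 0 = median of the neutral control wells; tested in H4 reporter cells; numbers are from one replicate; inactives centre near -14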
# Sa RN4220 lethal: kills Staphylococcus aureus RN4220 | S. aureus RN4220 growth, OD600, 16 h | AID 1259311 | inhibition, % (test concentration not listed) | 0.33% of 330,000 active;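 active = z-score of -3 or lower and OD600 up to 0.18 on both plates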;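 note: plate controls were untreated cells for no effect and reference antibiotic for full effect; stock transfer was 100 nL into about 80 µL; one replicate is shown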
# Mtb hypoxia inh: Mtb hypoxia fluorescent reporter inhibition. M. tuberculosis hypoxia-regulated fluorescent reporter, fluorescence. fluorescence inhibition, % (no concentration beside the values). 0.1% of 300,000 active;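 active = 35 to 45% if threefold the growth effect, above 45% if 1.5-fold the growth effect; inactive = the rest, general growth blockers included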;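 note: wells of about 50 µL received 100 nL stock; 0% = vehicle wells and 100% = reference inhibitor wells; whole bacteria with a GFP reporter of the hypoxia response; strong numbers were not always called active; many hits fall short of the cut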
# Sa ugtP lethal: kills S. aureus RN4220 lacking UgtP. S. aureus RN4220 ugtP deletion, OD600 growth, 16 h; some inactives read as strong as hits. 0.54% of 330,000 active. AID 1259309. growth inhibition, % (test concentration not listed);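 active = z-score under -3 and OD600 up to 0.15 on both plates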;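 note: plate controls were untreated wells for no effect and antibiotic for full effect; wells of about 80 µL received 100 nL stock; the first replicate is given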
# Bead autofluor: counter-screen for toxin protease inhibitors: compound fluorescence; compound autofluorescence counterscreen, microsphere flow cytometry; active compounds read high; fluorescence intensity (test concentration not listed); 3.1% of 360,000 active; AID 624483;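 active = at least 3 SD above the mean of all compounds, about 16000 in these data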;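 note: 100 nL of 1 mM stock went into each well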
# Mtb hypoxia inh growth: second read-out of Mtb hypoxia inh, no call of its own (marks repeat the call); growth inhibition, %; measured here: M. tuberculosis growth (absorbance);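 0% = vehicle and 100% = reference antibiotic; read after six days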
# An asterisk follows results filed as active; · = no result given.
SMILES,BJeLR lethal,PrP 5UTR inh,Sa RN4220 lethal,Mtb hypoxia inh,Mtb hypoxia inh growth,Sa ugtP lethal,Bead autofluor
OCCNC(=S)Nc1ccc2nsnc2c1,6,-19,2.8,3,-2,1,4556
CCNS(=O)(=O)c1ccc(NC(=S)N2CCc3ccccc32)cc1,11,-27,3.3,-7,-2,8,5567
COc1ccc(OC)c(C=NNC(=O)c2ccc(=O)n(C)c2)c1,·,·,3.6,-2,-5,18,·
CCOc1ccc(NC(=O)c2cnc3scc(C)n3c2=O)cc1,0,-30,-0.4,-5,-2,-8,6374
CCCNC(=O)CSc1nc2ccc(OCC)cc2s1,3,-14,1.3,-4,3,-3,4219
COc1cc2nc(N(CCCN(C)C)C(=O)c3ccc(S(=O)(=O)N4CCc5ccccc54)cc3)sc2cc1OC,-2,-21,1.7,7,12,-14,4440
OCC1NCC(O)C1O (stereo not drawn),·,·,7.4,9,2,10,·
Cc1ccccc1NC(=O)C(C)N1C(=O)c2ccccc2C1=O (stereo not drawn),-4,-4,-1.5,-21,0,0,4249
CCOc1ccc(C(=O)NC(=S)Nc2cccnc2)cc1,-8,-6,-0.9,9,4,-6,2086
Cc1cc(-c2n[nH]c(=S)n2N=Cc2ccccc2[N+](=O)[O-])n[nH]1,·,·,-3.3,0,1,13,·
Cc1ccc(Cc2c(C)nc3nc(SCC(=O)NCCCN4CCCC4)nn3c2C)cc1,12,-14,3.4,4,2,0,5359
Cc1oc(-c2ccccc2Cl)nc1CS(=O)(=O)CC(=O)NC(C)c1ccccc1 (stereo not drawn),-3,-25,-16,8,16,-12,5611
COC(=O)c1cc(S(=O)(=O)NCCc2sccc2C)c[nH]1,3,-15,0.6,3,0,-1,5868
COc1cc2nc(CN3C(=O)c4ccccc4C3=O)oc(=O)c2cc1OC,-5,0,4.3,8,10,10,2832
COc1ccc(NS(=O)(=O)c2ccc(NC(C)=O)cc2)cc1OC,7,-24,2.7,18,8,5,9456
Cc1ccc(OCC(=O)NNC(=O)c2ccco2)c(C)c1,-7,-30,3.3,8,2,10,4562
CN1/C(=C/C(=S)NC(=O)C2CCC2)C(C)(C)c2ccccc21,6,1,5.9,11,10,1,5634
CCCCCn1c(C(C)NC(=O)CCC)nc2ccccc21 (stereo not drawn),0,-14,5.7,3,1,2,5941
Nc1ncnc2c1ncn2C1CCCC(CO)O1 (stereo not drawn),·,-6,3.0,17,7,5,3446
CCOC(=O)C1C2COc3ccc(Cl)cc3C2N2C(=O)c3cc(OC)ccc3NC(=O)[C@@]12C (stereo partly drawn),·,·,2.1,-8,13,4,·
CN(C)Cc1c(C(=O)N/N=C/c2cccc(OCc3ccccc3)c2)nnn1-c1nonc1N,6,-11,·,·,·,·,5460
Cc1ccccc1OCC(=O)OCC(=O)NCc1cccs1,0,-3,2.7,5,6,5,2180
O=C(Nc1ccccc1)c1nccn1Cc1ccc(F)cc1,4,-53,-1.0,-4,-7,-13,2394
C=CC[C@@H](CC(=O)N(CCO)Cc1ccccc1)C(=O)N[C@H](COC(=O)[C@@H](CC=C)CC(=O)OC(C)(C)C)Cc1ccccc1,·,6,2.4,-3,8,-11,3583
CCOC(=O)c1c(NC(=O)CN2C(=O)C(=O)N(CC(C)C)C2=O)sc(C)c1CC,11,-19,3.9,-3,-7,4,5457
CC1CCCCN1CCn1cnc2c([nH]c3ccccc32)c1=O (stereo not drawn),0,-8,-11,4,9,-7,5817
CCOC(=O)c1cc(NC(=O)NC2CCCCC2)c(C)nc1C,1,-25,0.1,-4,2,11,3708
Cc1c(C(=O)NCCC2=CCCCC2)oc2ccc(S(=O)(=O)N3CCC4(CC3)OCCO4)cc12,-7,-16,3.6,-80,-11,-6,3127
NCCCCC(C(=O)NCCCCCCCCCCC(=O)N1CCNCC1)n1cc(CCO)nn1 (stereo not drawn),·,·,1.3,3,11,-2,·
O=C(OCc1cccc([N+](=O)[O-])c1)c1cc(=O)[nH]c2ccccc12,1,·,-0.5,-9,-5,-8,·
COc1ccccc1CC(NC(C)=O)C(=O)NC1CCN(C(=O)Nc2ccccc2C)CC1 (stereo not drawn),8,-42,·,·,·,·,3546
CC[C@@]1(C(=O)OC)N[C@H](CN(C)C(C)=O)[C@@H]2C(=O)N(Cc3ccccc3)C(=O)[C@@H]21,·,-9,-1.0,4,12,1,3353
O=C(CSc1n[nH]c(-c2ccco2)n1)Nc1ccc(F)cc1,16,-17,0.0,12,-4,-2,3538
CCNC(=O)CP(=O)(c1ccccc1)c1ccccc1,6,-13,1.8,·,·,0,3739
O=C(/C=C/c1ccc(Cl)cc1)c1ccc([N+](=O)[O-])o1,40,-1,·,·,·,·,3833
CC(C)CCN1CCN(Cc2cccc3cccnc23)CC1CCO (stereo not drawn),23,-22,-0.3,-11,-12,2,3017
CC(C)C1S/C(=N/N=Cc2ccco2)NC1=O (stereo not drawn),·,·,6.1,3,-1,1,·
CCc1ccc(C2C(C#N)=C(N)N(N(C)C)C3=C2C(=O)CCC3)s1 (stereo not drawn),-11,-11,5.0,6,4,8,2288
O=C(NCc1ccc(F)cc1)Nc1ccccc1,2,-27,3.3,2,10,-8,5638
O=C(CSc1ccc(-c2ccc(F)cc2)nn1)NCC1CCCO1 (stereo not drawn),11,-43,1.7,2,2,1,3954

# Compound profiles, as listed above. Order of values: BJeLR lethal | PrP 5UTR inh | Sa RN4220 lethal | Mtb hypoxia inh | Mtb hypoxia inh growth | Sa ugtP lethal | Bead autofluor
# O=C(NCc1ccc(F)cc1)Nc1ccccc1 as listed: 2 | -27 | 3.3 | 2 | 10 | -8 | 5638
# O=C(/C=C/c1ccc(Cl)cc1)c1ccc([N+](=O)[O-])o1 as listed: 40 | -1 | · | · | · | · | 3833
# CCNC(=O)CP(=O)(c1ccccc1)c1ccccc1 as listed: 6 | -13 | 1.8 | · | · | 0 | 3739
# CC(C)C1S/C(=N/N=Cc2ccco2)NC1=O (stereo not drawn) as listed: · | · | 6.1 | 3 | -1 | 1 | ·
# COc1ccccc1CC(NC(C)=O)C(=O)NC1CCN(C(=O)Nc2ccccc2C)CC1 (stereo not drawn) as listed: 8 | -42 | · | · | · | · | 3546

# Continued:
SMILES,BJeLR lethal,PrP 5UTR inh,Sa RN4220 lethal,Mtb hypoxia inh,Mtb hypoxia inh growth,Sa ugtP lethal,Bead autofluor
CCc1ccccc1NC(=O)c1ccc([N+](=O)[O-])s1,-2,-37,26,2,3,12,4432
NS(=O)(=O)c1cccc(NC(=O)COC(=O)/C=C/c2ccco2)c1,-3,-7,2.3,5,7,-1,2446
Cn1cccc1CC(=O)NN=C/C=C/c1ccco1,·,·,2.5,0,6,-4,·
COc1cc(/C=C2\SC(=S)N(NS(=O)(=O)c3ccc(C)cc3)C2=O)cc(OC)c1OC,-12,-16,14,-1,12,3,3987
CC(=O)N/C(=C\c1ccccc1)C(=O)OCC(=O)Nc1ccc(C)c(S(=O)(=O)N(C)C)c1,·,-8,3.6,9,6,2,4304
CCN1CCN(C(=O)c2cc(COc3ccc(C(C)=O)cc3OC)on2)CC1,8,-116,3.4,-2,3,5,5031
COc1cc(C(=O)NCC(=O)N/N=C(/C)c2cccs2)cc(OC)c1OC,-7,-32,·,·,·,·,2444
Cc1ccc(Nc2c(-c3ccccn3)nc3cccc(C)n23)cc1,37,26,101*,25,31,100*,3726
Cc1cccc(-c2noc(Cc3ccccc3)n2)c1,9,-66,-0.8,1,-3,26,8827
COc1ccccc1CNS(=O)(=O)c1cc2c3c(c1)CCC(=O)N3CCC2,-12,-8,5.9,7,5,9,4583
CC(=O)c1ccc(N2CCN(S(=O)(=O)c3cn(C)cn3)CC2)cc1,11,-4,5.0,11,-3,11,5097
COc1ccccc1-n1cnnc1SCC(=O)Nc1cccc(S(=O)(=O)N2CCCCC2)c1,6,·,4.2,4,8,-3,·
O=C(CSc1ccc2nnc(-c3ccccn3)n2n1)Nc1ccc2c(c1)OCO2,-12,-6,-2.4,-1,8,3,5784
O=C(Nc1cccc(Cl)c1)Nc1nnc(CC2=CCCCC2)s1,7,-24,-5.3,-3,0,-7,2273
COc1ccc(OC)c(N/C=C/C(=O)c2ccccc2)c1,19,81*,·,·,·,·,4271
Cc1ccc(C)c(S(=O)(=O)N2CCN(C(=O)[C@H](C)N3C(=O)C4CC=CCC4C3=O)CC2)c1 (stereo partly drawn),·,-10,3.8,0,4,2,8922
CCOC(=O)N1CCC(NC(=O)C2CCN(S(=O)(=O)c3cnc[nH]3)CC2)CC1,-5,-9,3.2,·,·,12,3492
C[N+]1(CC(O)COc2ccccc2)CCN(C(=O)c2ccc([N+](=O)[O-])cc2)CC1 (stereo not drawn),6,-14,6.7,3,6,3,7121
C/C(=N\NC(=O)c1ccc([N+](=O)[O-])cc1Cl)c1ccccc1,-2,-44,·,·,·,·,3439
CCc1c(-c2ccccc2)nc2ccccc2c1C(=O)N1CCC2(CC1)OCCO2,5,-20,0.4,0,0,5,5284
CCOc1ccc(C=NNC(=O)C(C)Sc2ccccn2)cc1OCC (stereo not drawn),·,·,5.9,3,5,0,·
O=C(Nc1ccc(OCC(=O)N2CCOCC2)cc1)Nc1cccc2ccccc12,-4,-2,4.3,12,6,-1,3749
COc1ccc(C(=O)NCc2cccnc2)cc1OC,-4,-22,2.2,0,-4,1,22834*
Cc1cc(SCC(=O)c2ccccc2)n2nc(C)nc2n1,3,-9,-0.5,·,·,-1,4736
COC(=O)[C@@]1(Cc2ccccc2)[C@H]2C(=O)N(Cc3ccccc3)C(=O)[C@H]2[C@H]2CN=C(SCc3ccc(Cl)cc3)N21,·,-2,-0.5,-1,11,-14,3568
Cc1ccc(C(=O)Nc2cc3ccccc3oc2=O)cc1,35,86*,-4.4,-2,-5,-2,4870
Cc1ccc(N2N=C(C(=O)O)CCC2=O)cc1Cl,4,-13,2.1,1,2,1,4468
O=C(Nc1ccc(NC(=S)NC(=O)c2ccco2)cc1)c1ccccc1,-7,-27,-1.9,·,·,10,3732
CCN(CC)CCCNC(=S)N(Cc1cccnc1)Cc1cc2cc(C)ccc2[nH]c1=O,9,-31,2.0,15,2,6,4307
CCOC(=O)C1(Cc2ccc(Cl)cc2)CCN(C(=O)c2cc(C)nc(C)n2)CC1,10,-3,3.9,4,0,6,2106
CN1CCN(c2ccc([N+](=O)[O-])cc2S(=O)(=O)N2CCOCC2)CC1,-17,-9,2.8,·,·,4,4932
COc1ccc(CCNC(=O)c2cc(-c3cc(C)cc(C)c3O)n[nH]2)cc1OC,-1,-4,3.6,-11,-7,-5,5287
Cc1ccccc1NC(=O)N1CCCC(c2nc(-c3ccc(C(C)C)cc3)no2)C1 (stereo not drawn),10,-34,-8.0,14,11,-13,23120*
Nc1ncc(Br)cc1S(=O)(=O)NCCC(=O)NCCc1ccccc1,2,-16,1.3,5,6,1,6036
N#Cc1c(N)sc(=S)c2c1CCCC2,-12,-26,23,5,3,13,2390
COc1cccc(CNc2ncnc3ccc(-c4c(C)noc4C)cc23)c1,·,5,17,4,-7,18,3792
CC(C)(C)OC(=O)NCCc1nnc(SCC(=O)c2ccc(Cl)cc2)o1,-1,0,6.9,19,9,-4,4852
CC(=O)Nc1ccc(NC(=O)c2c(C)nn(Cc3ccccc3Cl)c2C)cc1,-2,2,4.6,-4,-4,1,3303
COCCCn1c(=NC(=O)c2ccccc2)c(C#N)cc2c(=O)n3cccc(C)c3nc21,6,66*,0.4,16,11,-2,·
CCCC(=O)Nc1c(-c2cccc(OC)c2)c(=O)c2ccccc2n1C,-5,7,4.7,-5,-7,1,3395
O=C(NCc1ccccn1)c1cc2n(n1)C(C(F)(F)F)CC(c1ccco1)N2 (stereo not drawn),-9,-14,2.3,·,·,-2,4733
CC1CCCN(CCOCCOc2ccc(Cl)cc2Br)C1 (stereo not drawn),2,7,-7.2,17,24,-9,21666*
Nc1n[nH]c(=S)n1N=C1C(=O)Nc2ccccc21,·,·,2.5,-5,4,7,·
CCn1c(=O)cc(OCC(=O)NCCC(C)C)c2ccccc21,-8,1,1.6,·,·,0,5762
Cc1cccc(NC(=O)/C(=C\c2ccco2)NC(=O)c2cccs2)c1,-3,-11,3.9,6,7,-14,9116
CCC1(C)COC(c2ccc(OC)c(OC)c2)OC1 (stereo not drawn),·,-16,4.3,8,14,6,3935
CC(O)CNCCOc1cccc(Oc2ccccc2)c1 (stereo not drawn),6,-15,13,16,5,7,4457

# Compound activity as filed in PubChem BioAssay.

# Random draw from the library; about 4% have a hit in one of these screens.
